Screens from PubChem.
gsp ag: activates gsp, the McCune-Albright syndrome mutation. gsp mutant cells, cAMP HTRF, 30 min; control for the full effect not named in the record. Potency, µM (doses to about 76.9 µM), for the others: top-dose activation (cAMP increase), most hits filed as activators. 0.13% of 340,000 active; active = well fitted activation curve with a large enough effect; inconclusive = small, poorly fitted or top-dose-only effect, or another doubt; inactive = no such curve, though single readings can be large or run the other way; cell line not stated here;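 also: phosphodiesterase inhibitor Ro 20-1724 added with compounds to block cAMP breakdown; potency is read from the fitted curve at half-maximal effect; nearly all actives have a fitted effect of over 60% in size; about a fifth of the inactives were tested at one dose only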
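Cells in DMEM/10% FBS with G418 were pretreated with compounds in DMSO plus […] (300 uM stock) for 30 min at 37C. cAMP was measured by HTRF (cAMP-d2 plus anti-cAMP antibody-K) after 30 min at room temperature.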
D2 PAM: potentiates the human D2 dopamine receptor allosterically; AID 624464; DiscoveRx D2 beta-arrestin cells, luminescence, 90 min; 100% = 57 uM dopamine signal; P14416; 0.23% of 360,000 active; potentiation, % (test concentration not listed); active = potentiation of 50% or more; inconclusive = 30% to 50%; inactive = 30% or less;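 also: compound concentration not given in the record; tested on top of an EC20 dose of dopamine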
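D2 cells co-treated with compound plus 50 nM dopamine (EC20) for 90 min at 37 deg C to detect potentiation. Beta-arrestin recruitment was read as enzyme-fragment luminescence after 1 h at ambient temperature. Full response was set by 57 uM dopamine.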
Menin MLL FP FL: displaces fluorescein MLL peptide from human menin; Fluorescence polarization, fluorescein-MLL peptide displacement from menin; FP activity change, % at 61.4 µM; 290,000 tested, under 10 active; AID 1766; inconclusive = falling polarisation curve, or a change in total fluorescence; inactive = total fluorescence flat and polarisation flat or rising; no compound was filed as active; the % refers to the polarisation; negative = inhibition;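 also: % of control where 0% means no effect; inhibitors lower the polarisation; unlabelled MLL peptide was the positive control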
TRPV1 PAM: human TRPV1 potentiation; Q8NER1; TRPV1-expressing cells, Fluo-8 calcium influx, capsaicin EC20 potentiation; host cell line not named in the record; control for the full effect not named in the record; potentiation, % at 8.33 µM; 0.02% of 320,000 active; AID 540277; active means potentiation above 80%; inconclusive means 30% to 80%; inactive means below 30%; also: 0% is about no effect
Target sequence (Q8NER1 whole entry, looked up): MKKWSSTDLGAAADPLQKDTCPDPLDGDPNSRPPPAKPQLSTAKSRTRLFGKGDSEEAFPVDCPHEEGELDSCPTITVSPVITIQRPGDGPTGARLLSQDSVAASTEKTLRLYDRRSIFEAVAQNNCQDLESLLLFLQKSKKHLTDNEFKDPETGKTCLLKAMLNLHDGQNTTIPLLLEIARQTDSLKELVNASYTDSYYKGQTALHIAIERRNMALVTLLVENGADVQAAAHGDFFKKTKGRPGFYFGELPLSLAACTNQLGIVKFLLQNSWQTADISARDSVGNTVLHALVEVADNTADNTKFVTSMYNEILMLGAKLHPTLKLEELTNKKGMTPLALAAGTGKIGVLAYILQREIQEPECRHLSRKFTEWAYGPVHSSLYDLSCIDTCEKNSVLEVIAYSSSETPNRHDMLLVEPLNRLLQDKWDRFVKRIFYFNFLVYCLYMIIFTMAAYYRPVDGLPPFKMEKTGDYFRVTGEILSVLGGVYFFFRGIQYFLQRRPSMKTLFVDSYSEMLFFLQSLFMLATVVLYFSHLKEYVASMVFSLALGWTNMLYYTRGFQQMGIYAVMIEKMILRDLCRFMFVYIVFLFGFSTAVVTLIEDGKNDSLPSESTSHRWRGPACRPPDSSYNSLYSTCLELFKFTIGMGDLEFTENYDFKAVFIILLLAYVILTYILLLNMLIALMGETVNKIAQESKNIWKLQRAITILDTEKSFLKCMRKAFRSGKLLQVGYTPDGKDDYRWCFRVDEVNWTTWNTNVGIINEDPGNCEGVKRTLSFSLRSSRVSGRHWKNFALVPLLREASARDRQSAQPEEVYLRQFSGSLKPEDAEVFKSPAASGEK
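TRPV1-expressing cells were cultured overnight at 35.5C and loaded with Fluo-8 calcium dye for 40 to 90 min at room temperature. After a 10 s baseline, compound was added and calcium influx was read kinetically for 3 min (ex 480/em 520 nm).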
Sfp inh: blocks B. subtilis Sfp PPTase activity | Q9F4F7 | Potency, µM, inactives show max response, negative = inhibition, actives largely listed as inhibitors | AID 1490 | 3.5% of 310,000 active | Biochemical Sfp PPTase activity, qHTS; active = well fitted inhibition curve with a large enough effect; inconclusive = small, poorly fitted or top-dose-only effect, or another doubt; inactive = no such curve, though single readings can be large or run the other way;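 also: the enzyme is Sfp with the accession as filed and its product quenches rhodamine fluorescence; potency is read from the fitted curve at half-maximal effect; 0% = enzyme reaction without inhibitor and -100% = no enzyme wells; top concentration of the series not given in the record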
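Reaction rates are the 30-min fluorescence difference (ex 525, em 598 nm) in wells containing 15 nM Sfp, 5 uM rhodamine-CoA and 12.5 uM BHQ-2-YbbR at pH 7.6 with 10 mM MgCl2.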
ClpP mod: qHTS Assay for Activators of ClpP; ATP-dependent Clp protease proteolytic subunit (Bacillus subtilis (strain 168)), P80244; purified B. subtilis ClpP, FRET peptide cleavage, 20 min; Potency, µM (highest dose often 57.5 µM), inactives show at the highest dose activity change, negative = active; 1.9% of 340,000 active; active = well fitted falling curve with a large enough effect; inconclusive = small, poorly fitted or top-dose-only effect; inactive = no such curve, though single readings can be large or run the other way; also: potency is read from the fitted curve at half-maximal effect; the source files actives as falling curves though it sought activators and does not explain the sign; nearly all actives have a fitted effect of over 65% in size; many hits overshoot -100%
Target sequence (P80244 whole entry, looked up): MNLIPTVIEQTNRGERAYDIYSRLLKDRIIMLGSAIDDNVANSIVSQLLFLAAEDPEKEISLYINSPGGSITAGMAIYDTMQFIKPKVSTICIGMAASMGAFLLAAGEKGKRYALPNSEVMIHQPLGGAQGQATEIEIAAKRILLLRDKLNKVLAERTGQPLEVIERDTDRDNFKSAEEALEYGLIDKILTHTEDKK
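FRET quenching reversal measured ClpP activation: 10 microg/mL B. subtilis ClpP at pH 8 with the FRET-FV decapeptide, read at 430 nm after 320 nm excitation. The 20-min minus 0-min signal was scaled between DMSO/no-enzyme wells and ADEP (5.8 microM final).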
gsp antag: gsp mutant antagonism; gsp-mutant cells, cAMP HTRF, 30 min; control for the full effect not named in the record; 0.4% of 340,000 active; Potency, µM (series often up to 76.9 µM), without a hit: at the highest dose activity change, negative = inhibition, usual class: inhibitors; active = falling curve of any shape with a large fitted effect; inconclusive = falling curve, mostly with a smaller effect; inactive = flat or rising curve; cell line not stated here;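 also: intracellular cAMP measured with PDE inhibitor Ro 20-1724 present during compound exposure; potency is read from the fitted curve at half-maximal effect; % is scaled to controls: 0 for no effect and ±100 for the full control effect; nearly all actives have a fitted effect of over 65% in size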
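HTRF cAMP measurement after 30 min RT detection following 30 min, 37C compound treatment alongside […] (added as 300 uM solution) in G418-selected cells seeded at 2000/well and grown 16–24 h.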
* marks the source's active call; other numbers are inactive results; ? = inconclusive; nt = not tested or not shown; [ ] = remark or other dose.

SMILES	gsp ag	D2 PAM	Menin MLL FP FL	TRPV1 PAM	Sfp inh	ClpP mod	gsp antag
Cc1cc([N+](=O)[O-])ccc1NC(=O)CCC(=O)N1CCCCCC1	14%	-10	-0.6	-2	17%	-0.9%	-6%
c1ccc(Cn2nnnc2C(c2cccs2)N2CCSCC2)cc1 (stereo unspecified)	-8%	-11	-0.3	-2	9%	-0.2%	-5%
CCCCn1c(N)c(N(CC)C(=O)C2CCC2)c(=O)[nH]c1=O	-29%	-5	nt	-15	nt	-0.9%	-1%
CCc1ccc(-c2cc(C)no2)cc1S(=O)(=O)N1CCN(c2cc(C)ccc2C)CC1	-1%	-3	1.5	18	?	nt	2%
N#Cc1ccccc1S(=O)(=O)N1CCN(C(=O)CN2CCCSc3ccccc32)CC1	-14%[15.4 µM]	14	nt	-13	nt	0.2%	-2%
O=C(COC(=O)c1ccccc1)Nc1cccc(S(=O)(=O)N2CCCCC2)c1	-30%	8	nt	14	nt	0.8%	-15%
CCc1ccc2c(c1)C(c1ccc([N+](=O)[O-])cc1)=NNC(c1ccc(Br)cc1)=N2	-27%	-3	0.1	-13	-8%	-9.8%	-5%
c1ccc2c(c1)nc(N1CCN(C3CCCCC3)CC1)c1nnnn12	nt	nt	0.4	-4	3%	nt	nt
COc1ccc2oc(C(=O)OCC(=O)NCCN3C(=O)CSC3=O)c(C)c2c1	7%[15.4 µM]	-4	0.4	-7	9%	1.0%	9%
O=C(Cn1nnc2ccccc2c1=O)N[C@H](C(=O)O)c1ccccc1	?	3	2.2	3	11%	-1.6%	-6%
COc1ccc(CNC(=O)c2noc3c2CCCC3)cc1	-4%	9	-0.2	-12	17%	-0.3%	1%
Cc1onc(-c2c(F)cccc2Cl)c1C(=O)OCC(=O)Nc1c(C)n(C)n(-c2ccccc2)c1=O	-28%	3	-2.5	-1	3%	0.9%	8%
Cc1cc(=O)oc2cc(OCC(=O)Nc3nccs3)ccc12	11%	-5	-1.5	15	6%	4.4%	-1%
O=C(Nc1ccc(O)cc1)/C(=C\c1cccs1)NC(=O)c1ccccc1	17%	-5	-2.3	1	6%	-0.8%	12%
O=C(CCCC(=O)Nc1ccccc1Br)N/N=C/c1c(F)cccc1Cl	0%	-6	1.7	0	5%	nt	-10%
O=C(CSc1nnc(COc2ccccc2)n1-c1ccccc1)c1ccccc1	-6%	-11	3.2	10	7%	-0.3%	0%
O=C1NC(c2cc3c(cc2Cl)OCO3)Oc2ccccc21 (stereo unspecified)	-38%[inhibitor]	-12	5.8	-8	-10%	-28%	5%
Cc1cccc(NC(=O)CN2C(=O)N/C(=C\c3ccc(-c4cccc(C(=O)O)c4)o3)C2=O)c1	22%	-2	14	3	40µM*	nt	-6%
COc1ccc(N2CCN(C(=O)CNC(=O)c3cn(-c4ccccc4OC)c(=O)c4ccccc34)CC2)cc1	-3%[15.4 µM]	-5	-3.7	0	-2%	nt	-23%
O=C(O)c1ccccc1-c1ccccc1C(=O)Nc1ccc2c(c1)oc(=O)c1ccccc12	-1%	-8	nt	nt	nt	4.0%	nt

Overlap with the part before: two entries, followed by the next part.
SMILES	gsp ag	D2 PAM	Menin MLL FP FL	TRPV1 PAM	Sfp inh	ClpP mod	gsp antag
COc1ccc(N2CCN(C(=O)CNC(=O)c3cn(-c4ccccc4OC)c(=O)c4ccccc34)CC2)cc1	-3%[15.4 µM]	-5	-3.7	0	-2%	nt	-23%
O=C(O)c1ccccc1-c1ccccc1C(=O)Nc1ccc2c(c1)oc(=O)c1ccccc12	-1%	-8	nt	nt	nt	4.0%	nt
CCCc1nc2ccccc2n1CCOc1ccccc1	-26%	-9	-4.4	-1	6%	-1.2%	?
Cc1cccc(C(=O)NCCNC(=O)c2cccc(C)c2)c1	-21%	-6	2.9	19	-24%	nt	-8%
Cc1ccc(S(=O)(=O)NC(C)C(=O)NC2CCCCCC2)cc1 (stereo unspecified)	-3%	-13	0.2	4	-5%	-1.2%	12%
Cn1c2c(c(=O)n(C)c1=O)CN(Cc1ccc(F)cc1)CN2	5%	-20	2.5	?	28%	-5.9%	5%
O=c1oc2cc(O)ccc2cc1-c1ccccc1	?	2	18	-16	8%	4.1%	17%
CCCOc1ccc(C(F)(F)F)cc1NS(=O)(=O)c1ccc(Cl)nc1	-4%[15.4 µM]	-6	nt	14	nt	nt	-16%
C/C(=N\NC(=O)Cc1cccn1C)c1ccc2ccccc2c1	-6%	0	0.7	8	-1%	-11%	-18%
COc1cccc2cc(C(=O)CS(=O)(=O)c3ccc(Cl)cc3)c(=O)oc12	3%	2	nt	?	-7%	1.0%	-15%
Cc1nn(C)c(C)c1S(=O)(=O)N1CCC(C(=O)NC2CCCc3ccccc32)CC1 (stereo unspecified)	3%	-2	-0.2	5	10%	1.0%	2%
CCOc1nc(-c2ccccc2)ccc1-c1noc(COC)n1	3%	3	3.4	-9	-29%	35µM*	?
CCC(=O)Nc1ccc(C(=O)COC(=O)c2nc3nccc(C)n3n2)cc1	3%	2	nt	0	nt	-1.6%	12%
COC(=O)C1C(=O)C2=C(CC1C)NC(=O)CC2c1ccccc1 (stereo unspecified)	7%	-5	1.9	-1	-22%	1.1%	-14%
O=C(O)Cc1sc(NC2CCCCC2)nc1-c1ccc(Cl)cc1	?	-2	0.9	-3	-14%	nt	?
C=CCc1ccccc1OCC(CN1CCCCC1)OC(C)=O (stereo unspecified)	6%	-39	1.6	4	8%	-0.8%	13%
CCOCCCNC(=O)C(c1ccc(Cl)cc1)N(Cc1cccs1)C(=O)c1ccccn1 (stereo unspecified)	6%[15.4 µM]	9	3.8	-22	18%	nt	1%
CCCCC(NS(=O)(=O)c1ccc(C)cc1)C(=O)Oc1ccc2c3c(c(=O)oc2c1)CCC3 (stereo unspecified)	?	-1	-0.3	8	-2%	576%	14%
CCCN(CCC)Cc1cc2ccccc2c2c1COC2	7%	-27	4.7	-19	22%	-5.8%	-29%
O=C(Nc1ccccn1)c1ccc(COc2ccccc2Cl)o1	9%	-5	5.7	-2	-1%	1.0%	-7%
Cc1ccc(CCN2CC(C(=O)NCCCN3CCCCCC3)CC2=O)cc1 (stereo unspecified)	?	-12	0.0	-1	-9%	0.5%	3%
O=S(=O)(Nc1cccc2ccccc12)c1cccc2nonc12	10%[15.4 µM]	-7	2.0	5	1%	nt	-1%
COc1cc(C(O)P(=O)(OCCC(C)C)c2ccc(N(C)C)cc2)cc(OC)c1OC (stereo unspecified)	14%[15.4 µM]	-10	2.6	nt	1%	nt	-18%
N#CC1=C(SCC(=O)c2ccc(Br)cc2)NC2=C(C(=O)CCC2)C1c1ccco1 (stereo unspecified)	-44%[inhibitor]	3	7.3	-1	-24%	1.4%	14%
O=C(Nc1cccc(-c2nnc(-c3ccccc3)o2)c1)C1CCCO1 (stereo unspecified)	-36%[inhibitor]	9	-2.5	nt	0%	-11%	?
CCN1CCCC1CNC(=O)c1ccc2c(c1)NC(=O)/C(=C\c1ccc(OC)c(OC)c1)S2 (stereo unspecified)	7%	-18	nt	?	-12%	0.1%	7%
COc1ccc(CN(C)C(C)C(=O)Nc2ccc(S(=O)(=O)N3CCOCC3)cc2)c(OC)c1 (stereo unspecified)	-5%[15.4 µM]	2	0.6	-10	15%	nt	-7%
O=C(Cc1ccc2cccnc2c1)c1ccc(O)cc1O	1%	0	1.7	-6	-12%	-3.3%	?
COc1cc2c(cc1OC)CN(C(=O)c1ccc(S(=O)(=O)N3CCCCC3)cc1)CC2	9%	-5	1.5	-3	17%	-3.1%	-17%
Nc1c(N(Cc2ccco2)C(=O)COc2ccccc2F)c(=O)[nH]c(=O)n1Cc1ccccc1	-39%[inhibitor]	-6	nt	0	nt	-4.7%	0%
CN1CCC(=NNC(=O)c2cc(-c3ccc(Cl)cc3)n[nH]2)CC1	-7%[15.4 µM]	4	1.7	nt	5%	nt	6%
CCn1c(SC)nnc1-c1ccc(S(=O)(=O)N2CCCCC2)cc1	16%	-8	nt	nt	nt	?	-24%
CCCCn1cnc2c(cnn2-c2ccc(Cl)cc2)c1=O	0%	14	-0.4	24	13%	-2.8%	1%
Cc1ccc(NC(=O)Cc2cc(C(=O)O)c3ccccc3n2)c(C)c1	0%	12	0.8	3	24%	-7.0%	-4%
O=C(O)C1CCN(c2nc(-c3ccccc3)nc3c2oc2ccccc23)CC1	-31%[inhibitor]	3	2.7	-13	7%	-22%	?
Cc1ccsc1CN(C)C(=O)c1ccc(Oc2ccccc2)cc1	-10%	-6	-4.4	-6	-16%	nt	-25%
CCn1c(=O)c2c(cnn2C)c2ccccc21	8%	3	12	?	-4%	-0.5%	22%
CNc1ccc(/C=C/C(=O)c2cccc3ccccc23)cc1[N+](=O)[O-]	-43%[inhibitor]	6	5.9	-1	0%	0.9%	11%
Cc1c(/C=N/NC(=O)C(C)(C)Oc2ccc(Cl)cc2)cnn1C	-11%	6	1.7	-22	20%	-1.4%	-8%
CC(c1ccccn1)N(Cc1ccco1)C(=S)Nc1cccc(F)c1 (stereo unspecified)	-1%[15.4 µM]	-3	4.0	3	6%	nt	7%
COc1ccc(NC(=O)/C=C/C(=O)O)cc1Cl	-11%	-8	0.8	11	13%	-1.2%	7%
CC1=N/C(=C\c2ccc([N+](=O)[O-])cc2)C(=O)N1c1ccc(Br)c(C)c1	-34%[inhibitor]	-9	3.2	12	?	2.8%	-4%
CCCCOc1ccc(N(CC(=O)NC2CCCCC2)C(=O)CCC(=O)Nc2ccccn2)cc1	-5%[15.4 µM]	-1	1.5	?	12%	nt	10%
COC(=O)C1CC(O)CN1C(=O)Nc1cccc(C(F)(F)F)c1 (stereo unspecified)	-1%	0	-3.6	?	-20%	nt	11%
CCOC(=O)c1c(NC(=O)CSc2nc3ccccc3o2)sc(C(C)=O)c1C	-28%	-2	11	16	-5%	-2.2%	?
O=C(COC(=O)c1ccc(Cl)nc1)Nc1c(Cl)cccc1C(F)(F)F	-33%[15.4 µM]	-22	nt	-12	nt	-4.8%	7%
Cc1cccc(NC(=O)c2nc[nH]c2C(=O)NCCCCCNC(=O)OC(C)(C)C)c1	20%	12	nt	0	nt	-0.2%	?
Cc1ccnc(NS(=O)(=O)c2ccc(NC(=O)C34CC5CC(CC(C5)C3)C4)cc2)n1	1%	-17	2.7	?	19%	-0.4%	?
COc1cccc(NC(=O)CN(C)C(=O)c2cc(C)on2)c1	-5%[15.4 µM]	2	nt	4	nt	3.3%	3%
